KRASV12 cytotoxicity: viability loss of HPDE-C7K cells – cell-based, fluorescence, HTS, primary screen (AID 431). hit rate 1.7% among 63,000. cytotoxicity, % at 10 µM; hits with a dose series show EC50 in µM. HPDE-C7K KRASV12 cells, Alamar Blue viability, 48 h; higher % means a stronger effect;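 active = compounds whose percent cytotoxicity in the single-dose primary screen, scaled between solvent and toxic-drug controls, exceeds 50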;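 note: 0% = DMSO solvent wells and 100% = doxorubicin-treated wells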
LYP phosphatase: LYP phosphatase inhibitors, primary screen, biochemical, DiFMUP fluorescence, recombinant catalytic domain, 10 µM (AID 606) | recombinant LYP catalytic domain, DiFMUP fluorescence; higher % means a stronger effect | 52,000 tested, under 10 active | inhibition, % at 10 µM; hits with a dose series show IC50 in µM;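 active = IC50 under 40 µM in the dose-response test; inactive = IC50 of 40 µM or more, or never dose-tested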
Bfl-1 displacement: displacement of Bid BH3 peptide from Bfl-1 – biochemical, fluorescence polarization, FITC-Bid, mouse, primary screen (AID 432) | FITC-Bid BH3 peptide fluorescence polarization displacement; higher % means a stronger effect | displacement, % at 20 µM, or IC50 in µM where a hit was titrated | hit rate 0.02% among 64,000; in the data active = a potency from the dose series; inactive = the rest, 99 in 100 with displacement below about 15%; note: strong numbers were not always called active
HT1080 cytotoxicity: cytotoxicity in HT1080 fibrosarcoma cells, cell-based, fluorescence readout (AID 620); HT1080 viability, fluorescence; higher % means a stronger effect; one-dose cytotoxicity, % at 10 µM; EC50 in µM for titrated hits; hit rate 0.42% among 87,000;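 note: cells exposed to compound overnight then 4 h with Alamar Blue; 0% = vehicle DMSO and 100% = killing control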
TNAP inhibition: inhibition of tissue-nonspecific alkaline phosphatase – biochemical, luminescent (AID 518); hit rate 0.09% among 64,000; one-dose inhibition, % at 20 µM; IC50 in µM for titrated hits; purified TNAP enzyme, luminescent substrate readout; higher % means a stronger effect; in the data active = a potency from the dose series; inactive = the rest, 99 in 100 with inhibition below about 22%;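 note: plate controls were vehicle for no effect and reference inhibitor for full effect; many of its hits are not listed in these tables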
HPDE-C7 viability: cytotoxicity in HPDE-C7 cells, cell-based, fluorescence, HTS (AID 430); HPDE-C7 pancreatic duct cells viability, fluorescence; higher % means a stronger effect; cytotoxicity, % at 10 µM, or EC50 in µM where a hit was titrated; hit rate 1.8% among 63,000;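 note: cells exposed to compound for 48 hours before viability readout; 0% = vehicle and 100% = reference cytotoxic drug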
* hit, by the source's call; nt = not tested or not shown. Cut-off read from the data, not from the text of the source, unless noted: active = cytotoxicity above about 50%; inactive = the rest. A portion of the library, so the mix of outcomes need not match the whole.

Short forms – A = KRASV12 cytotoxicity; B = LYP phosphatase; C = Bfl-1 displacement; D = HT1080 cytotoxicity; E = TNAP inhibition; F = HPDE-C7 viability
#1 CC1(C)CC(N(Cc2ccco2)C(=O)Cc2ccccc2)CCO1 (stereo unspecified)
  A = 7%; B = 17%; C = 4%; D = -8%; E = 7%; F = 7%

#2 O=C(CCCn1nnc(-c2cccnc2)n1)c1ccc(F)cc1
  A = 0%; B = 17%; C = -2%; D = 8%; E = 14%; F = -5%

#3 CN(C)C(CNC(=O)Nc1cccc(Cl)c1)c1cccnc1 (stereo unspecified)
  A = -18%; B = 1%; C = 3%; D = -3%; E = 1%; F = -45%

#4 CN1C(=O)CSc2ccc(NC(=O)N3CCC(N4CCCCC4)CC3)cc21
  A = -15%; B = 13%; C = -6%; D = 5%; E = -2%; F = -11%

#5 COc1cccc(N2CCN(C(=O)NC3CCCCC3)CC2)c1
  A = -15%; B = 5%; C = 0%; D = 3%; E = 2%; F = -6%

#6 CCOc1ccc(OCCSc2nnnn2C2CCCCC2)cc1
  A = -35%; B = 1%; C = 0%; D = 0%; E = 13%; F = -30%

#7 COC(=O)CNC(=O)C1CCCN1C(=O)CNC(=O)OC(C)(C)C (stereo unspecified)
  A = -1%; B = 2%; C = -5%; D = -2%; E = -3%; F = -10%

#8 COc1ccc(S(=O)(=O)N(C)c2c(C)n(C)n(-c3ccccc3)c2=O)cc1OC
  A = 0%; B = nt; C = 2%; D = 8%; E = 10%; F = -6%

#9 Cc1cccc(NC(=O)CSc2nnc(CSc3nc(C)cc(C)n3)n2Cc2ccco2)c1
  A = 6%; B = -5%; C = 6%; D = 0%; E = 9%; F = -12%

#10 CCCCc1c(O)nc(SCC(=O)c2ccccc2)[nH]c1=O
  A = 6%; B = 3%; C = -2%; D = -3%; E = 6%; F = 4%

#11 Cc1cccc(-c2nc(CS(=O)CC(=O)N3CCN(C)CC3)c(C)o2)c1 (stereo unspecified)
  A = 7%; B = 4%; C = -2%; D = -5%; E = 12%; F = 3%

#12 Cc1ccc(-c2csc(N3CCC(NS(=O)(=O)c4ccc5c(c4)OCCO5)CC3)n2)cc1
  A = 34%; B = 14%; C = 6%; D = 0%; E = 8%; F = 55%*

#13 Cn1c(=O)c2c(nc(N3CCCCCC3)n2CCSc2nc3ccccc3o2)n(C)c1=O
  A = -2%; B = 3%; C = 2%; D = 8%; E = 3%; F = -6%

#14 CCn1cc(C(=O)NCC2CCCO2)c(=O)c2cc(F)c(N3CCN(C)CC3)cc21 (stereo unspecified)
  A = 3%; B = -6%; C = -3%; D = 1%; E = 3%; F = 0%

#15 CC(C)(C)C(=O)c1sc(Nc2ccccc2)nc1N
  A = -5%; B = -2%; C = -6%; D = 7%; E = 11%; F = 0%

#16 NC(=O)CN1CCCN(S(=O)(=O)c2ccc(Br)cc2)CC1
  A = -1%; B = 6%; C = 0%; D = 6%; E = 6%; F = -14%

#17 Cn1c(=O)n(C)c2cc(NC(=O)C(F)(F)F)ccc21
  A = 10%; B = 2%; C = 2%; D = -7%; E = 14%; F = 16%

#18 Cc1ccc(C)c(OCC(O)CN2CCC(C)CC2)c1C (stereo unspecified)
  A = -4%; B = -20%; C = 2%; D = 1%; E = 6%; F = -6%

#19 CCOC(=O)N1CCN(C(=O)c2ccc3c(=O)n4c(nc3c2)CCCCC4)CC1
  A = -6%; B = 18%; C = -13%; D = 4%; E = 8%; F = -9%

#20 Cn1c(SCC(=O)NC(C)(C)C)nnc1-c1ccc(C(C)(C)C)cc1
  A = 8%; B = 4%; C = -14%; D = 2%; E = -5%; F = 5%

#21 CCNC(=O)CC1C(=O)N(c2ccc(F)cc2)C(=O)N1Cc1ccc(OC)cc1 (stereo unspecified)
  A = -5%; B = 0%; C = 0%; D = 1%; E = -4%; F = -19%

#22 CCOc1ccccc1N(CC(=O)N1CCOCC1)S(=O)(=O)c1ccc(SC)cc1
  A = -6%; B = 6%; C = -5%; D = 0%; E = 4%; F = -11%

#23 CCOc1ccc(N2C(=O)CSC2c2ccncc2)cc1 (stereo unspecified)
  A = -9%; B = nt; C = 0%; D = 6%; E = 7%; F = -4%

#24 CC1CC(C(F)(F)C(F)(F)F)n2nc(C(=O)O)cc2N1 (stereo unspecified)
  A = 3%; B = 6%; C = 0%; D = 3%; E = 1%; F = 10%

#25 NC(=O)c1ccccc1NC(=O)CCCN1C(=O)CCC1=O
  A = -2%; B = 14%; C = -1%; D = 4%; E = 13%; F = -4%

#26 COc1ccc(NC(=O)[C@H](CCS(C)(=O)=O)N2Cc3ccccc3C2=O)c(OC)c1
  A = 5%; B = 29%; C = 13%; D = 2%; E = 7%; F = 3%

#27 CC(=O)Nc1ccc(C(=O)c2ccccc2)cc1
  A = -27%; B = 16%; C = -7%; D = 4%; E = 1%; F = -10%

#28 COc1ccc(N(C(=O)c2ccc(S(=O)(=O)N3CCOCC3)cc2)C2C=CS(=O)(=O)C2)cc1 (stereo unspecified)
  A = -10%; B = 3%; C = -3%; D = 9%; E = 5%; F = -17%

#29 C[C@]12CC[C@@H]3c4ccc(OS(=O)(=O)O)cc4CC[C@H]3[C@@H]1CCC2=O
  A = -24%; B = 12%; C = 11%; D = -8%; E = 12%; F = -7%

#30 O=C(CSc1ccc(-c2ccc(F)cc2)nn1)N1CCCCC1
  A = -18%; B = 10%; C = 2%; D = -1%; E = 13%; F = -12%

Given with two lines to a compound: entries from further up.
Order of values – KRASV12 cytotoxicity | LYP phosphatase | Bfl-1 displacement | HT1080 cytotoxicity | TNAP inhibition | HPDE-C7 viability
#28 COc1ccc(N(C(=O)c2ccc(S(=O)(=O)N3CCOCC3)cc2)C2C=CS(=O)(=O)C2)cc1 (stereo unspecified)
 : -10% | 3% | -3% | 9% | 5% | -17%
#29 C[C@]12CC[C@@H]3c4ccc(OS(=O)(=O)O)cc4CC[C@H]3[C@@H]1CCC2=O
 : -24% | 12% | 11% | -8% | 12% | -7%

Later entries.
Short forms – A = KRASV12 cytotoxicity; B = LYP phosphatase; C = Bfl-1 displacement; D = HT1080 cytotoxicity; E = TNAP inhibition; F = HPDE-C7 viability
#31 Cc1cccc(OCCCC(=O)Nc2ccc(S(=O)(=O)Nc3onc(C)c3C)cc2)c1
  A = 6%; B = -1%; C = -2%; D = 0%; E = 10%; F = 4%

#32 Cc1ccc(NC(=O)CC2SCCNC2=O)cc1Cl (stereo unspecified)
  A = 0%; B = 7%; C = -5%; D = 6%; E = 6%; F = 6%

#33 COc1cccc(C(=O)NC2CCSC2=O)c1 (stereo unspecified)
  A = -15%; B = -3%; C = -7%; D = 26%; E = 14%; F = -8%

#34 CC1=C(C(N)=O)C(c2ccccc2)n2nc(-c3cccs3)nc2N1 (stereo unspecified)
  A = -9%; B = -1%; C = -2%; D = 2%; E = 4%; F = -17%

#35 CSc1ccccc1-n1nnnc1SCC(=O)NCc1cccs1
  A = 4%; B = 5%; C = -2%; D = -1%; E = 10%; F = 2%

#36 NC(=O)C1CCN(C(=O)CSCc2ccccc2Cl)CC1
  A = -4%; B = nt; C = -6%; D = 30%; E = 10%; F = -1%

#37 Cc1cc(C)c(C)c(S(=O)(=O)NCC(=O)N2CCCC2)c1C
  A = 9%; B = -4%; C = -3%; D = 7%; E = 6%; F = 3%

#38 O=C1NC(Cc2c[nH]c3ccccc23)C(=O)N1CCOc1ccccc1 (stereo unspecified)
  A = -2%; B = 5%; C = 4%; D = 8%; E = 7%; F = -9%

#39 CCc1cc2ccc(OC)cc2nc1SCC(=O)Nc1cc(C)on1
  A = -4%; B = 5%; C = -5%; D = 2%; E = 1%; F = -8%

#40 CCN1CCCC1CNC(=O)CS(=O)(=O)Cc1nc(-c2ccccc2C)oc1C (stereo unspecified)
  A = 29%; B = 4%; C = -2%; D = 13%; E = 10%; F = 27%

Arranged by length of the SMILES (smallest number first): 3 of the compounds above.
Short forms – A = KRASV12 cytotoxicity; B = LYP phosphatase; C = Bfl-1 displacement; D = HT1080 cytotoxicity; E = TNAP inhibition; F = HPDE-C7 viability
#39 CCc1cc2ccc(OC)cc2nc1SCC(=O)Nc1cc(C)on1
  A = -4%; B = 5%; C = -5%; D = 2%; E = 1%; F = -8%

#40 CCN1CCCC1CNC(=O)CS(=O)(=O)Cc1nc(-c2ccccc2C)oc1C (stereo unspecified)
  A = 29%; B = 4%; C = -2%; D = 13%; E = 10%; F = 27%

#31 Cc1cccc(OCCCC(=O)Nc2ccc(S(=O)(=O)Nc3onc(C)c3C)cc2)c1
  A = 6%; B = -1%; C = -2%; D = 0%; E = 10%; F = 4%

Of the compounds above, these contain two or more sulfur atoms:
Short forms – A = KRASV12 cytotoxicity; B = LYP phosphatase; C = Bfl-1 displacement; D = HT1080 cytotoxicity; E = TNAP inhibition; F = HPDE-C7 viability
#9 Cc1cccc(NC(=O)CSc2nnc(CSc3nc(C)cc(C)n3)n2Cc2ccco2)c1
  A = 6%; B = -5%; C = 6%; D = 0%; E = 9%; F = -12%

#12 Cc1ccc(-c2csc(N3CCC(NS(=O)(=O)c4ccc5c(c4)OCCO5)CC3)n2)cc1
  A = 34%; B = 14%; C = 6%; D = 0%; E = 8%; F = 55%*

#22 CCOc1ccccc1N(CC(=O)N1CCOCC1)S(=O)(=O)c1ccc(SC)cc1
  A = -6%; B = 6%; C = -5%; D = 0%; E = 4%; F = -11%

#28 COc1ccc(N(C(=O)c2ccc(S(=O)(=O)N3CCOCC3)cc2)C2C=CS(=O)(=O)C2)cc1 (stereo unspecified)
  A = -10%; B = 3%; C = -3%; D = 9%; E = 5%; F = -17%

#35 CSc1ccccc1-n1nnnc1SCC(=O)NCc1cccs1
  A = 4%; B = 5%; C = -2%; D = -1%; E = 10%; F = 2%

Bioassay records (PubChem BioAssay)
